c-Myc SMM = binders of human c-Myc, primary screen, biochemical, small molecule microarray, anti-His fluorescence. Myc proto-oncogene protein (Homo sapiens), P01106. His-c-Myc binding. calls only. actives 1.5% (n = 17,000);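 active = spot fluorescence over background with P-value below 7% in all four replicate spots, showing protein binding; compounds were printed on slides so no solution concentration is given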;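 also: score is binary with 100 for all four spots passing and 0 otherwise; about 2 pmol printed per array spot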
Target sequence (P01106 whole entry, looked up): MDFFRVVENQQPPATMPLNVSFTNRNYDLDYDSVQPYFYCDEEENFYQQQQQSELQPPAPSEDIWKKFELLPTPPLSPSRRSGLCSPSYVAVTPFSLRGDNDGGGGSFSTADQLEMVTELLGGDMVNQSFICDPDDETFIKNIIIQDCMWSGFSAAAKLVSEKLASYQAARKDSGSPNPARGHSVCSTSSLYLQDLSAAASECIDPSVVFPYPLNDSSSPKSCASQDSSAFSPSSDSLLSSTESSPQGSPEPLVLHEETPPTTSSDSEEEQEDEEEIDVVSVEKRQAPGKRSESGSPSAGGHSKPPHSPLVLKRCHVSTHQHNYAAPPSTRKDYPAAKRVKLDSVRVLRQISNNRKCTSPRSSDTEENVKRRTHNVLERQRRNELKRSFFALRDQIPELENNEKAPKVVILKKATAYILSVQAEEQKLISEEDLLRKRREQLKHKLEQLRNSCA
ID4 binder = binders of human ID4 protein, primary screen, biochemical, small molecule microarray, single point; AID 624137, 2012; calls only; actives 1.2% (n = 31,000); Flag-ID4 binding, fluorescence F/B; DNA-binding protein inhibitor ID-4 (Homo sapiens), P47928;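 active = spot signal over background at p below 0.07 in all four prints; compounds were printed on slides so no solution concentration is given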;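 also: a binder raises fluorescence above local background on the spot; about 2 pmol printed per array spot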
Target sequence (P47928 whole entry, looked up): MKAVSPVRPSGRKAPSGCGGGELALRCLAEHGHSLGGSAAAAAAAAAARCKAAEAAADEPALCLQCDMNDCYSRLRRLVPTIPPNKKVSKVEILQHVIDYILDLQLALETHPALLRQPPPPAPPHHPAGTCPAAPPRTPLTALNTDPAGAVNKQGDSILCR
STAT3 binder = STAT3 binders, primary screen, biochemical, small molecule microarray, single point, set 2; calls only; actives 0.2% (n = 17,000); His-STAT3 binding, anti-His fluorescence; Signal transducer and activator of transcription 3 (Homo sapiens), P40763;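 active = compounds whose four printed spots each show fluorescence over background unusually high for their array block, chance value under 7%; compounds were printed on slides so no solution concentration is given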;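 also: about 2 pmol printed per array spot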
mut p53 SMM = binders of human mutant p53, primary screen, biochemical, small molecule microarray, anti-GST fluorescence. calls only. mutant tumor protein p53 (GST-tagged), Homo sapiens. small molecule microarray binding. actives 0.4% (n = 17,000);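 active = compounds whose four printed spots each glow above background more than chance allows, each with a p-value under 7%; compounds were printed on slides so no solution concentration is given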;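 also: about 2 pmol printed per array spot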
Calls only; i = inactive; . = not tested or not shown; + = active, no number. Some of the compounds tested (hit frequency here may not be typical).

SMILES	c-Myc SMM	ID4 binder	STAT3 binder	mut p53 SMM
COC(=O)C1=COC(C)C2CN3CCC4(C(=O)Nc5ccccc54)C3CC12 (stereo unspecified)	i	.	i	i
Oc1ccc2c3c1OC1c4oc5ccccc5c4CC4(O)C(C2)N(CC2CC2)CCC314 (stereo unspecified)	i	i	i	i
CN1[C@@H]2CC[C@H]1CC(OC(=O)N1Cc3ccccc3NC1=O)C2 (stereo partly specified)	i	i	i	i
c1ccc(CCCCN2CCC(c3ccccc3)CC2)cc1	i	i	i	i
COc1ccc2c(c1)c(CCN1CCOCC1)c(C)n2C(=O)c1cccc(Cl)c1Cl	i	i	i	i
Clc1cncc(N2CCNCC2)n1	i	i	i	i
Cc1ccc(OC(=O)N(C)C[C@@H]2OCc3cnnn3CCCC(=O)N([C@@H](C)CO)C[C@@H]2C)cc1	i	i	i	i
Cc1ncc(CN2CC=C(c3ccccc3)CC2)c(N)n1	i	i	i	i
C=C(C)[C@@]12O[C@@H]1[C@@]1(C)C(=C[C@H]2O)CC[C@@H](O)[C@@H]1C	i	i	i	i
CC(=O)CC(c1ccc(Br)cc1)c1c(O)c2ccccc2oc1=O (stereo unspecified)	i	i	i	i
CCOC(=O)[C@@H]1[C@@H]2NC(=S)N(C)[C@@]1(C)Oc1ccccc12	i	i	i	i
CN(C)c1ccc(/C=C2\CCCN=C2c2cccnc2)cc1	i	i	i	i
COc1c(C(C)C)cc2c(c1O)[C@@]1(C(=O)O)CCCC(C)(C)C1CC2 (stereo partly specified)	i	i	i	i
O=C1/C(=C/c2ccccc2)C[C@@]2(O)C3Cc4ccc(O)c5c4[C@@]2(CCN3CC2CC2)[C@H]1O5	i	.	i	i
CC(=O)c1c(O)c(C)c(O)c(Cc2c(O)c3c(c(C(=O)/C=C/c4ccccc4)c2O)OC(C)(C)C=C3)c1O	i	.	i	i

Six compounds from above, ordered by number of heavy atoms, high to low:
SMILES	c-Myc SMM	ID4 binder	STAT3 binder	mut p53 SMM
CC(=O)c1c(O)c(C)c(O)c(Cc2c(O)c3c(c(C(=O)/C=C/c4ccccc4)c2O)OC(C)(C)C=C3)c1O	i	.	i	i
O=C1/C(=C/c2ccccc2)C[C@@]2(O)C3Cc4ccc(O)c5c4[C@@]2(CCN3CC2CC2)[C@H]1O5	i	.	i	i
COC(=O)C1=COC(C)C2CN3CCC4(C(=O)Nc5ccccc54)C3CC12 (stereo unspecified)	i	.	i	i
COc1c(C(C)C)cc2c(c1O)[C@@]1(C(=O)O)CCCC(C)(C)C1CC2 (stereo partly specified)	i	i	i	i
CC(=O)CC(c1ccc(Br)cc1)c1c(O)c2ccccc2oc1=O (stereo unspecified)	i	i	i	i
CN1[C@@H]2CC[C@H]1CC(OC(=O)N1Cc3ccccc3NC1=O)C2 (stereo partly specified)	i	i	i	i

Next results follow:
SMILES	c-Myc SMM	ID4 binder	STAT3 binder	mut p53 SMM
O=c1ccc2[nH]cc(C3=CCNCC3)c2[nH]1	i	i	i	i
CCCCC/C=C\C/C=C\C/C=C\C/C=C\CCCCCC(=O)NCCO	i	i	i	i
C=CCN1C[C@H](C)N([C@H](c2ccc(C(=O)N(CC)CC)cc2)c2cccc(OC)c2)C[C@H]1C	i	i	i	i
Fc1ccc(C(OCCN2CCN(C/C=C/c3ccccc3)CC2)c2ccc(F)cc2)cc1	i	i	i	i
CC1=CC(=O)C2=C(C)C[C@H](O)[C@@H]3[C@H](OC(=O)[C@H]3C)[C@H]12	i	i	i	i
C=CC1C[N+]2([O-])CCC1CC2C(O)c1ccnc2ccc(OC)cc12 (stereo unspecified)	i	.	i	i
C#CCOC(=O)C1=CCCN(C)C1	i	i	i	i
CC(C)[C@]1(O)[C@@H](OC(=O)c2ccc[nH]2)[C@@]2(O)[C@@]3(C)C[C@]4(O)O[C@@]5([C@H](O)[C@@H](C)CC[C@]35O)[C@@]2(O)C41C	i	i	i	i
CNc1ccc2oc(C[C@@H]3OC4(CC[C@@H]3C)O[C@H](C(C)C(=O)c3ccc[nH]3)[C@H](C)C[C@H]4C)nc2c1C(=O)O (stereo partly specified)	i	i	i	i
CCOC(=O)c1cc2c(cn1)[nH]c1ccccc12	i	i	i	i
COC(=O)C1CC(=O)C[C@H]2[C@]3(C)C[C@@H](c4ccoc4)OC(=O)[C@H]3CC[C@@]12C (stereo partly specified)	i	.	i	i
COc1cc(C2c3cc4c(cc3CC3COC(=O)C32)OCO4)cc(OC)c1OC (stereo unspecified)	i	i	i	i
O=c1c2ccccc2nc(CSc2ncnc3ccccc23)n1-c1ccccc1F	i	i	i	i
COc1ccc(C(=O)O)cc1OC	i	i	i	i
Cc1ccc(OC(=O)N(C)C[C@@H]2OCc3cnnn3CCCC(=O)N([C@H](C)CO)C[C@@H]2C)cc1	i	i	i	i
CN1C(=O)[C@@H](NC(=O)c2cc3ccccc3[nH]2)N=C(c2ccccc2)c2ccccc21	i	i	i	i
S=C(NC1CCCCC1)N1CCC(c2cnc[nH]2)CC1	i	i	i	i
CC[C@H]1C2C[C@H]3[C@@H]4N(C)c5ccccc5C45C[C@H](C2[C@H]5O)N3[C@@H]1O (stereo partly specified)	i	i	i	i
NCCc1ccccn1	i	i	i	i
C=C1CC[C@]2(O)[C@]3(C)C[C@@]4(O)O[C@@]2([C@@H]1O)[C@]1(O)[C@@]3(O)[C@H]([C@H](OO)c2ccc[nH]2)[C@](C)(C(C)C)[C@@]14C	i	i	i	i
C/C=C1/C[N+]2(C)CCC34C(=C(C=O)[C@H]1C[C@@H]32)Nc1ccccc14 (stereo partly specified)	i	.	i	i
Oc1ccc2c3c1O[C@H]1[C@@H](O)CC[C@@]4(O)[C@@H](C2)N(CC2CCC2)CC[C@]314	i	i	i	i
C[C@@H]1Cc2c(Cl)cc(C(=O)N[C@@H](Cc3ccccc3)C(=O)O)c(O)c2C(=O)O1	i	.	i	i
COC(=O)c1cc2c(cn1)[nH]c1ccccc12	i	i	i	i
CCOC(=O)[C@@H]1[C@@H]2NC(=S)N[C@@]1(C)Oc1ccccc12	i	i	i	i
CN(C(=O)Cc1ccccc1)C(CN1CCCC1)c1ccccc1 (stereo unspecified)	i	i	i	i
CCCn1c(C)c(C(=O)c2cccc3ccccc23)c2ccccc21	i	i	i	i
C=C1[C@]23C(=O)O[C@@H](C)[C@]2(O)C(=O)O[C@@]1(C)[C@H](OC(C)=O)C1=C(C)[C@@]2(C=CC(=O)OC2(C)C)CCC13C (stereo partly specified)	i	i	i	i
CN1CCC2(c3cccc(O)c3)Cc3nc4ccccc4cc3CC2C1 (stereo unspecified)	i	i	i	i
CCC1CC2CC3(C(=O)OC)c4[nH]c5ccc(OC)cc5c4CCN(C2=O)C13 (stereo unspecified)	i	i	i	i

Quoted at random: 7 compounds from above
SMILES	c-Myc SMM	ID4 binder	STAT3 binder	mut p53 SMM
CCCn1c(C)c(C(=O)c2cccc3ccccc23)c2ccccc21	i	i	i	i
CN(C(=O)Cc1ccccc1)C(CN1CCCC1)c1ccccc1 (stereo unspecified)	i	i	i	i
CC[C@H]1C2C[C@H]3[C@@H]4N(C)c5ccccc5C45C[C@H](C2[C@H]5O)N3[C@@H]1O (stereo partly specified)	i	i	i	i
CCC1CC2CC3(C(=O)OC)c4[nH]c5ccc(OC)cc5c4CCN(C2=O)C13 (stereo unspecified)	i	i	i	i
S=C(NC1CCCCC1)N1CCC(c2cnc[nH]2)CC1	i	i	i	i
CCOC(=O)[C@@H]1[C@@H]2NC(=S)N[C@@]1(C)Oc1ccccc12	i	i	i	i
C=C1[C@]23C(=O)O[C@@H](C)[C@]2(O)C(=O)O[C@@]1(C)[C@H](OC(C)=O)C1=C(C)[C@@]2(C=CC(=O)OC2(C)C)CCC13C (stereo partly specified)	i	i	i	i

Further entries:
SMILES	c-Myc SMM	ID4 binder	STAT3 binder	mut p53 SMM
CC1C/C=C/C2C3OC3(C)C(C)C3C(Cc4ccccc4)NC(=O)C23OC(=O)O/C=C/C(C)(O)C1=O (stereo unspecified)	i	.	i	i
CN(C)Cc1c[nH]c2ccccc12	i	i	i	i
CCCCC/C=C\C/C=C\C/C=C\C/C=C\CCCC(=O)N[C@H](C)CO	i	i	i	i
c1cncc(CNCCc2c[nH]c3ccccc23)c1	+	+	+	i
c1ccc2sc(C3(N4CCCCC4)CCCCC3)cc2c1	i	i	i	i
Cc1ccc(-n2c(CNCc3cccnc3)nc3ccccc3c2=O)cc1	i	i	i	i
COc1cc(C)c(Oc2cc(C)cc(O)c2)c(O)c1	i	i	i	i
CO/C1=C/C(C)=C/[C@@H](C)[C@@H](O)[C@@H](C)C/C(C)=C/C=C\[C@H](OC)[C@@H]([C@@H](C)[C@@H](O)[C@H](C)[C@@]2(O)C[C@@H](O)[C@H](C)[C@@H](C(C)C)O2)OC1=O	i	.	i	i
Cc1ccc(OC(=O)N(C)C[C@H]2OCc3cnnn3CCCC(=O)N([C@@H](C)CO)C[C@@H]2C)cc1	i	i	i	i
CC(C)[C@]12O[C@H]1[C@@H]1O[C@]13[C@]1(O[C@H]1C[C@H]1C4=C(CC[C@@]13C)C(=O)OC4)[C@@H]2O	i	i	i	i
NCCc1cccc(O)c1	i	.	i	i
NC1(c2ccccc2Cl)CCCCC1=O (stereo unspecified)	i	i	i	i
CCN1C[C@]2(C)CC[C@H](O)[C@]34C1[C@H](C[C@H]23)[C@@]1(O)C[C@H](OC)[C@H]2C[C@@H]4[C@@H]1C2O (stereo partly specified)	i	i	i	i
CCNCC(O)c1cccc(O)c1 (stereo unspecified)	i	i	i	i
COC1=CC(=O)O[C@@H](/C=C/c2ccccc2)C1	i	i	i	i
O=c1c2ccccc2nc(CSc2ccccn2)n1-c1ccccc1Cl	i	i	i	i
N#Cc1c(Oc2cccc(OS(=O)(=O)CCCC(F)(F)F)c2)cccc1C(F)(F)F	i	i	i	i
CCCCC/C=C\C/C=C\C/C=C\C/C=C\CCCC(N)=O	i	i	i	i
CCc1c(C(=O)OC)ncc2[nH]c3cc(OC)c(OC)cc3c12	i	i	i	i
CC(=O)Oc1ccc(/C=C/c2cc(OC(C)=O)cc(OC(C)=O)c2)cc1	i	i	i	i
Cc1nnc2n1-c1sc(CCC(=O)N3CCOCC3)cc1C(c1ccccc1Cl)=NC2	i	i	i	i
CO[C@@H]1[C@H](O)[C@@H](O[C@@H]2C[C@H]3CC[C@@H]4C(CC[C@]5(C)[C@@H](C6=CC(=O)OC6)CC[C@]45O)[C@@]3(C)[C@H](O)C2)O[C@H](C)[C@@H]1O[C@@H]1O[C@H](CO)[C@@H](O)[C@H](O)[C@H]1O (stereo partly specified)	i	i	i	i
O=C(c1ccco1)c1cn(CCCOc2ccccc2)c2ccccc12	i	i	i	i
C[N+]1=Cc2cc3c(cc2CC1)OCO3	i	i	i	i
CCCN1CCCC2Cc3[nH]ncc3CC21 (stereo unspecified)	i	i	i	i
O=C1NC(=O)C(CCc2ccncc2)(CCc2ccncc2)C(=O)N1c1ccccc1F	i	i	i	i
CN1CCN(CC(=O)Nc2ccc(Br)cc2C(=O)c2ccccc2)CC1	i	i	i	i
CCN1C[C@]2(C)CC[C@H](OC)[C@@]34C1[C@@]1(OCO[C@@]15C[C@H](OC)[C@H]1C[C@]3(O)[C@@H]5[C@H]1OC)[C@@H](OC(C)=O)[C@H]24	i	i	i	i
c1ccc(CC(c2ccccc2)N2CCCCC2)cc1 (stereo unspecified)	i	i	i	i
c1cc(Cc2cnc[nH]2)ccn1	i	i	i	i
C/C=C(\C)C(=O)OC1C(C)=C2C(C1OC(=O)CCCCC)C(C)(OC(C)=O)CC(OC(=O)CCC)C1(O)C2OC(=O)C1(C)O (stereo unspecified)	i	i	i	i
CNc1ccc2oc(C[C@H]3O[C@@]4(CC[C@H]3C)O[C@H]([C@H](C)C(=O)c3ccc[nH]3)[C@H](C)C[C@H]4C)nc2c1C(=O)O	i	i	i	i
CCC(O)CC1CCCC(CC(O)c2ccccc2)N1C (stereo unspecified)	i	.	i	i

Record cards (already shown). Values in the order: c-Myc SMM | ID4 binder | STAT3 binder | mut p53 SMM
CO[C@@H]1[C@H](O)[C@@H](O[C@@H]2C[C@H]3CC[C@@H]4C(CC[C@]5(C)[C@@H](C6=CC(=O)OC6)CC[C@]45O)[C@@]3(C)[C@H](O)C2)O[C@H](C)[C@@H]1O[C@@H]1O[C@H](CO)[C@@H](O)[C@H](O)[C@H]1O (stereo partly specified) across the screens: i | i | i | i
CCCN1CCCC2Cc3[nH]ncc3CC21 (stereo unspecified) across the screens: i | i | i | i

Source: PubChem BioAssay
